PINK1 expr mod: changes PINK1 expression. PINK1 immunofluorescence, high-content cytometry, 24 h. Potency, µM (doses to about 76.6 µM), inactives show at the highest dose activation (PINK1 increase), usual class: activators. actives 0.2% (n = 410,000). AID 624263; active = well fitted activation curve with a large enough effect; inconclusive = small, poorly fitted or top-dose-only effect; inactive = flat fitted curve, though single readings scatter; cell line not stated here;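 also: potency is read from the fitted curve at half-maximal effect; % of control where 0% means no effect; nearly all actives have a fitted effect of over 65% in size; a mitochondrial uncoupler was the plate control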
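Compound titrations (5 concentrations, 24 h) on a stable cell line; DMSO and CCCP controls. Endpoint: fixed-cell PINK1 immunofluorescence with mitochondrial, cell and nuclear markers, scanned by microplate cytometer.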
TRPML1 blocker: blocks the human TRPML1 channel. activity change, negative = inhibition, % (no concentration beside the values). Q9GZU1. actives 0.02% (n = 390,000). TRPML1-inducible cells, Ca2+ dye fluorescence, FDSS; active compounds read low; inhibition of EC80 agonist-evoked calcium signal; in the data active means activity change below about -50%; inconclusive means about -30% to -50%; inactive means above about -30%;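 also: stimulus is agonist 54-4 at its EC80 concentration; % is scaled to controls: 0 for no effect and ±100 for the full control effect; compound concentration not given in the record; the text of the record puts the active cut at -80%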
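TRPML1-DL cells, Tet-induced overnight (~16 h, 37 °C) at 1,500 cells/well, were loaded with Ca8 no-wash dye plus quencher for 45-90 min at room temperature. Compounds were pinned during FDSS kinetic reading; agonist 54-4 at EC80 (4 uM final) then added.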
TRPML1 agonist: agonists of human TRPML1 channel; Q9GZU1; TRPML1-expressing cells, Ca2+ dye fluorescence, FDSS; host cell line not named in the record; reference of the full effect not given here; activation, % (test concentration not listed); actives 0.12% (n = 410,000); in the data active = activation above about 50%; inconclusive = about 30% to 50%; inactive = below about 30%; also: 0% is about no effect; the text of the record puts the active cut at 80%
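Kinetic FDSS Ca2+ read in Tet-induced TRPML1-DL cells (ABD Ca8 dye plus quencher, 45-90 min RT loading): baseline, then compound, then 110 s agonist window; EC80 agonist 54-4 at 4uM final added afterwards for a 110 s antagonist window.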
Six1-Eya2 blk: Six1/Eya2 interaction inhibition. actives 0.56% (n = 360,000). activity change, % (test concentration not listed). Q15475+O00167. AlphaScreen GST-Six1/His-Eya2 binding, biochemical; active compounds read low; control for the full effect not named in the record; in the data active = activity change below about -65%; inconclusive = about -30% to -65%; inactive = above about -30%; also: % is scaled to controls: 0 for no effect and ±100 for the full control effect
Target sequence (O00167 whole entry, looked up): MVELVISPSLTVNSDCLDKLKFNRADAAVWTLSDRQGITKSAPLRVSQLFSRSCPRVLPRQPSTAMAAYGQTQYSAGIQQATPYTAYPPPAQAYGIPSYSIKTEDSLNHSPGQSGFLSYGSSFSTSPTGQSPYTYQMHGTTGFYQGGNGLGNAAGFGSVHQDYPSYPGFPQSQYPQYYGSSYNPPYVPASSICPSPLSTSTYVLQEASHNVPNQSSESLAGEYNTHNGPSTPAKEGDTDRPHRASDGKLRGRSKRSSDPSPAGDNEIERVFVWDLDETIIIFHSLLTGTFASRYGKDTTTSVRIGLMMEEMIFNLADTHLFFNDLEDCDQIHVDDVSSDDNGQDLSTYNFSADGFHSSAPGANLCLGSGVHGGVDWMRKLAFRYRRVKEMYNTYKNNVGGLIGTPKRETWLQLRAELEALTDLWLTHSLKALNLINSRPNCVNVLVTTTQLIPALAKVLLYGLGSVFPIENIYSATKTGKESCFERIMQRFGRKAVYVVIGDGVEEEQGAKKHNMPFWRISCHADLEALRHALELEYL
Target sequence (Q15475 whole entry, looked up): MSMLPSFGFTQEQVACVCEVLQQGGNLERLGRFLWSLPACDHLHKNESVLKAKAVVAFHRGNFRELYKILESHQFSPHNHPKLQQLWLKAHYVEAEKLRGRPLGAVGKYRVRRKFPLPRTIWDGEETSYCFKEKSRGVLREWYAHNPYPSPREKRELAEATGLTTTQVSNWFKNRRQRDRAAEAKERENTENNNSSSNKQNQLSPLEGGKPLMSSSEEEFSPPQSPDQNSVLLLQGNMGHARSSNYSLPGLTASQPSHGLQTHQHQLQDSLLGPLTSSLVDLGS
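Compounds are tested against tagged Six1 and Eya2 proteins bridged by glutathione donor and nickel acceptor beads; after a one-hour incubation at 37 °C without light, AlphaScreen emission is recorded.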
D2 potentiator: potentiates the human D2 dopamine receptor allosterically; P14416; actives 0.23% (n = 360,000); potentiation, % (no concentration beside the values); AID 624464; DiscoveRx D2 beta-arrestin cells, luminescence, 90 min; 100% = 57 uM dopamine signal; active = potentiation of 50% or more; inconclusive = 30% to 50%; inactive = 30% or less;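 also: compound concentration not given in the record; tested on top of an EC20 dose of dopamine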
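PathHunter D2 cells, attached overnight at 37 deg C, received compound in DMSO plus dopamine at EC20 (50 nM final) for 90 min at 37 deg C. Beta-arrestin recruitment was read as luminescence after 1 h with detection reagent at ambient temperature.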
D2 agonist: human D2 receptor agonism in beta-arrestin assay | P14416 | DiscoveRx PathHunter D2 beta-arrestin, luminescence, 90 min; 100% = 57 uM dopamine signal | activation, % (concentration not given with the values) | actives 0.084% (n = 360,000); in the data active = activation above about 40%; inconclusive = about 15% to 40%; inactive = below about 15%; also: compound concentration not given in the record; the text of the record calls up to 30% inactive
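Agonist mode: compounds alone added to overnight-plated D2 PathHunter cells for 90 min at 37 C, with 57 uM final dopamine (EC100) defining full response. Beta-arrestin recruitment detected by chemiluminescent reagent, read after 1 h at ambient temperature.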
* marks the source's active call; other numbers are inactive results; ? = inconclusive; nt = not tested or not shown; & = joins results of further samples; [ ] = remark or other dose.

Screens by letter – A = PINK1 expr mod; B = TRPML1 blocker; C = TRPML1 agonist; D = Six1-Eya2 blk; E = D2 potentiator; F = D2 agonist
CCc1nnc(N/N=C/c2cccs2)n1N
  A = -1.3%; B = -15; C = -0.8; D = 1; E = ?; F = ?
COc1ccc(NN=Nc2nc3c([nH]2)c(=O)n(C)c(=O)n3C)cc1
  A = 1.8%; B = 28; C = -0.3; D = -10; E = 4; F = 2.4
C/C(=N\NC(=O)c1ccc(Cl)cc1)c1ccc2[nH]ccc2c1
  A = 1.6%; B = 11; C = -1.2; D = 3; E = -11; F = -4.3
O=C(CSc1nc(-c2ccccc2)cc(C(F)(F)F)n1)NCCN1CCOCC1
  A = -0.2%; B = 17; C = -0.8; D = 0; E = -9; F = -4.9
COCCCNC(=O)CSc1nc2ccccc2c(=O)n1CCCN1CCCCC1
  A = 1.3%; B = 32; C = 0.0; D = -6; E = -9; F = -9.0
O=C1CC(=O)Nc2cc(S(=O)(=O)NCc3cccs3)ccc2N1
  A = 2.7%; B = 25; C = -0.4; D = 1; E = -10; F = -1.5
COc1ccc(Cl)cc1NC(=O)CCS(=O)(=O)c1ccc(Br)cc1
  A = 1.2%; B = -5; C = 1.3; D = ?; E = -36; F = 1.2
COc1ccc(CCn2c(=N)c(C(=O)NC3CCCC3)cc3c(=O)n4ccccc4nc32)cc1OC
  A = 1.9%; B = 7; C = -0.7; D = -5; E = -7; F = -5.3
Cc1c2cccn2cc[n+]1C
  A = 6.3%; B = -4; C = -0.4; D = 9; E = 4; F = -0.3
CCCCOc1ccc(-c2nc(/C=N/c3nccs3)c(O)o2)cc1
  A = 1.8%; B = -12; C = 0.4; D = 9; E = -17; F = 0.2
O=C(Nc1nnc(S(=O)(=O)N2CCCCCC2)s1)c1ccccc1Br
  A = 0.8%&0.3%; B = -5&11; C = -0.9&-0.5; D = -10; E = 0; F = -1.2
Cc1ccc2oc(=O)c3cc(C(=O)N4CCN(c5ccccc5F)CC4)sc3c2c1
  A = 0.2%; B = 6; C = -0.9; D = nt; E = nt; F = nt
O=C(O)COc1ccccc1/C=N/NC(=O)c1cc2ccccc2cc1O
  A = 0.9%; B = nt; C = nt; D = -14; E = -3; F = 1.0
CCC(C)(C)NC(=O)/C=C/c1ccc(OC)c(S(=O)(=O)N2CCOCC2)c1
  A = -0.9%; B = -8; C = 1.3; D = 1; E = -9; F = -0.4
Cc1cc(C)cc(OCC(=O)OCC(=O)NCc2ccco2)c1
  A = 0.4%; B = 6; C = 0.1; D = -2; E = -16; F = -3.4
CSCC[C@H](NC(=O)CC(C)(C)C)c1nc2ccccc2[nH]1
  A = 6.7%[38.3 µM]; B = 21; C = -0.5; D = -1; E = -16; F = -1.2
CCc1ccc(NC(=O)c2ccc3oc(=O)n(Cc4ccccc4)c3c2)cc1
  A = 2.0%; B = 20; C = 1.6; D = nt; E = nt; F = nt
COC(=O)[C@@H](NC(=O)NCc1ccco1)C(C)C
  A = 7.4%[38.3 µM]; B = -4; C = -0.2; D = 0; E = -13; F = -0.6
CCOC(=O)c1[nH]ncc1CN1CCCC(C(=O)c2cccc(OC(C)C)c2)C1 (stereo unspecified)
  A = -1.1%; B = 9; C = -0.4; D = 1; E = -14; F = -4.8
O=C(COC(=O)c1ccccn1)Nc1ccccc1OC(F)F
  A = 1.3%; B = -27; C = 0.3; D = 1; E = -6; F = -0.9
CCOC(=O)c1c(C)oc2c(CN3CCN(C)CC3)c(Br)c(OC)c(O)c12
  A = -2.3%[38.3 µM]; B = -6; C = -0.3; D = -2; E = -21; F = -4.1
O=S(=O)(Nc1ccc(Br)cc1)c1cccc2nonc12
  A = -0.6%; B = 6; C = 0.3; D = -4; E = -11; F = -5.0
CSc1ccc(CCNC(=O)c2csc3c2CCCCC3)cc1
  A = 1.6%; B = 32; C = 3.1; D = nt; E = nt; F = nt
N#C/C(=C(/O)c1cccs1)c1nnc2n1CCCCC2
  A = 3.5%; B = -13; C = -0.4; D = 6; E = 1; F = -2.3
O=C(NCC1CCCO1)c1ccc([N+](=O)[O-])o1 (stereo unspecified)
  A = -1.0%; B = 2; C = -0.4; D = 5; E = 11; F = 6.2
COc1ccc(NC(=O)c2cc3cc(OC)ccc3oc2=N)cc1
  A = 5.7%; B = 8; C = 0.5; D = -2; E = -19; F = -3.3
O=C(Cn1cnc2c(nnn2Cc2ccc(F)cc2)c1=O)NCc1ccccc1
  A = 0.9%; B = 14; C = -0.1; D = -3; E = -11; F = -4.5
Cc1[nH]c(=O)[nH]c(=O)c1NC(=O)c1ccc(OC(C)C)cc1
  A = 0.6%; B = 21; C = -1.4; D = 7; E = -3; F = -5.9
O=C1CCC(C(=O)N(Cc2ccco2)C2(C(=O)NC3CCCC3)CCCCC2)N1 (stereo unspecified)
  A = -0.3%; B = 1; C = -0.5; D = 0; E = -14; F = 1.7
CN(CCc1ccccn1)C(=O)c1ccc(OC(F)(F)F)cc1
  A = 1.0%; B = 32; C = 0.5; D = 5; E = 1; F = 1.4
CCc1nc2ccc(C(=O)NCCCN3CCCC3=O)cn2c1N(CC)C(C)=O
  A = 1.4%; B = nt; C = -0.7; D = 3; E = -3; F = -1.6
CCOC(=O)CC(NCc1ccc(OC)c(OCC)c1)c1ccc(C)cc1 (stereo unspecified)
  A = 6.8%; B = 6; C = 1.8; D = -3; E = -13; F = -0.2
CCOc1nc2cnccc2n(CC(=O)Nc2ccc(C)c(C)c2)c1=O
  A = 8.7%; B = 4; C = 0.5; D = 3; E = -5; F = 1.6
CCC(=O)Nc1nnc(SCc2ccccc2F)s1
  A = 0.8%; B = -10; C = 0.5; D = 7; E = 4; F = 0.3
O=C(O)CCc1ccc(-c2ccccc2)n1Cc1ccco1
  A = -2.6%; B = 20; C = 3.6; D = -7; E = 11; F = -1.1
O=C(NCCOc1ccccc1)c1cc([N+](=O)[O-])ccc1N1CCOCC1
  A = 0.7%; B = -10; C = 1.3; D = -6; E = -12; F = -2.7
c1ccc(COc2ccc(CNn3cnnc3)cc2)cc1
  A = nt; B = 13; C = -0.5; D = 2; E = -15; F = -2.2
Cc1ccc(NC(=O)C2CCN(S(=O)(=O)c3cccc4nsnc34)CC2)cc1F
  A = 9.4%; B = -10; C = 1.6; D = nt; E = nt; F = nt
CCN(C(=O)c1ccc(Cl)c(S(=O)(=O)Nc2c(C)n(C)n(-c3ccccc3)c2=O)c1)c1ccccc1
  A = -1.1%; B = -9; C = 0.5; D = 5; E = -3; F = 0.5
Cc1ccc(S(=O)(=O)c2nc(-c3ccco3)oc2NCC2CCCO2)cc1 (stereo unspecified)
  A = -1.2%; B = 18; C = 0.5; D = 3; E = -19; F = -0.4
COc1ccc(N2CCN(C(=O)CS(=O)Cc3nc(-c4ccc(OC)c(OC)c4)oc3C)CC2)cc1 (stereo unspecified)
  A = 3.2%; B = -8; C = -1.2; D = 2; E = -9; F = 0.5
Cc1cc(Cl)ccc1OCCCC(=O)NC1CCN(C)CC1
  A = -2.1%[38.3 µM]; B = -18; C = 1.5; D = 6; E = -4; F = -4.8
CCc1nc2ccc(C(=O)NCCCn3ccnc3)cn2c1N(C)C(=O)COc1ccccc1
  A = 1.9%; B = nt; C = -0.6; D = 7; E = 1; F = -1.1
CCCCOc1ccc(CSCCNC(=S)Nc2ccccc2)cc1
  A = ?; B = 6; C = 1.1; D = -6; E = 1; F = -1.6
COc1ccc(/C=N/NC(=O)c2c(-c3ccccc3)noc2C)cc1[N+](=O)[O-]
  A = -0.9%; B = 27; C = -0.9; D = 2; E = 4; F = -6.3
CC1CCN(c2ccc3c(c2)S(=O)(=O)c2cc(C(=O)O)ccc2C3=O)CC1
  A = -1.6%; B = -3; C = 15; D = 8; E = 6; F = -2.7
O=C(COC(=O)CN1C(=O)NC2(CCCC2)C1=O)NCc1ccc(Cl)cc1Cl
  A = 1.0%; B = 3; C = -0.2; D = 13; E = -11; F = -0.6
C=CCOC(=O)C1=C(C)NC(SCC(=O)OCC)=C(C#N)C1c1ccc(C)cc1 (stereo unspecified)
  A = -1.3%; B = 7; C = -0.4; D = 11; E = -28; F = -2.4
COc1ccccc1N1CCN(C(=O)C2CCN(S(=O)(=O)c3c(C)noc3/C=C/c3ccc(C)cc3)CC2)CC1
  A = -0.1%; B = 9; C = -0.2; D = nt; E = nt; F = nt
Cc1ccc(-n2ncc3c2CC(C)(C)CC3NC(=O)CCCN2CCCCC2=O)cc1 (stereo unspecified)
  A = 0.6%; B = 2; C = 1.5; D = -5; E = -6; F = 3.0

Some values from the list.
TRPML1 blocker, O=C(Cn1cnc2c(nnn2Cc2ccc(F)cc2)c1=O)NCc1ccccc1 : 14
PINK1 expr mod, CC1CCN(c2ccc3c(c2)S(=O)(=O)c2cc(C(=O)O)ccc2C3=O)CC1 : -1.6%
TRPML1 blocker, Cc1[nH]c(=O)[nH]c(=O)c1NC(=O)c1ccc(OC(C)C)cc1 : 21
TRPML1 blocker, COc1ccc(NC(=O)c2cc3cc(OC)ccc3oc2=N)cc1 : 8
PINK1 expr mod, COc1ccccc1N1CCN(C(=O)C2CCN(S(=O)(=O)c3c(C)noc3/C=C/c3ccc(C)cc3)CC2)CC1 : -0.1%
Six1-Eya2 blk, Cc1ccc(-n2ncc3c2CC(C)(C)CC3NC(=O)CCCN2CCCCC2=O)cc1 (stereo unspecified) : -5

Record cards, as listed above. Order of screens: PINK1 expr mod	TRPML1 blocker	TRPML1 agonist	Six1-Eya2 blk	D2 potentiator	D2 agonist
Results for Cc1ccc(NC(=O)C2CCN(S(=O)(=O)c3cccc4nsnc34)CC2)cc1F → 9.4%	-10	1.6	nt	nt	nt
Results for Cc1ccc(-n2ncc3c2CC(C)(C)CC3NC(=O)CCCN2CCCCC2=O)cc1 (stereo unspecified) → 0.6%	2	1.5	-5	-6	3.0

Continued:
Screens by letter – A = PINK1 expr mod; B = TRPML1 blocker; C = TRPML1 agonist; D = Six1-Eya2 blk; E = D2 potentiator; F = D2 agonist
NC(=O)c1cc2cc(Cc3ccccc3Cl)ccc2oc1=O
  A = 3.3%; B = -11; C = -0.3; D = -7; E = 1; F = -3.9
N#Cc1cccc(S(=O)(=O)NCCOc2ccccc2F)c1
  A = -0.8%; B = 4; C = -0.8; D = -2; E = -8; F = 7.4
Cc1cc(=O)[nH]c(-c2cccnc2)n1
  A = 0.1%; B = 10; C = 0.1; D = -2; E = -2; F = 6.7
Cc1cccc(NC(=O)CSc2nnc(-c3ccco3)c(-c3ccco3)n2)c1C
  A = 0.5%; B = -10; C = 0.3; D = ?; E = 29; F = 7.8
CCOC(=O)c1cccc(NC(=O)C2CCCN(S(=O)(=O)c3c(C)nn(C)c3C)C2)c1 (stereo unspecified)
  A = 3.4%; B = -14; C = 0.4; D = -8; E = -1; F = 0.4

Screens deposited in PubChem by National Center for Advancing Translational Sciences (NCATS).
